Vaccinia Venus = inhibitors of vaccinia virus (Venus reporter); AID 720580; Potency, µM (series often up to 36.5 µM), for inactives: at the highest dose activity change, negative = inhibition, actives largely listed as inhibitors; Vaccinia virus Venus reporter expression, fluorescence; 0.46% of 330,000 active; active means well fitted inhibition curve with a large enough effect; inconclusive means small, poorly fitted or top-dose-only effect; inactive means no such curve, though single readings can be large or run the other way; tested in A549 cells; also: nearly all actives have a fitted effect of over 30% in size; inactives centre near -10
Vaccinia mCherry = inhibitors of vaccinia virus infection (mCherry reporter signal); Potency, µM (titrated, usually from 36.5 µM), for the others: top-dose activity change, negative = inhibition, most hits filed as inhibitors; Vaccinia virus mCherry reporter infection, fluorescence; about a quarter of the inactives have no number; 0.63% of 310,000 active; active = well fitted inhibition curve with a large enough effect; inconclusive = small, poorly fitted or top-dose-only effect; inactive = no such curve, though single readings can be large or run the other way; tested in A549 cells; also: nearly all actives have a fitted effect of over 35% in size; inactives centre near -10
* = called active by the depositor; i = inactive; ? = inconclusive; . = no result given; & = joins results of further samples; [ ] = another dose, or the depositor's remark. % is scaled to controls: 0 for no effect and ±100 for the full control effect; potency is read from the fitted curve at half-maximal effect.

SMILES | Vaccinia Venus | Vaccinia mCherry
COc1cccc(N2CCN(C(=O)c3cccc(S(=O)(=O)N4CCCC4)c3)CC2)c1 | -19% | -9%
CCC1CN(C(=O)Nc2cc(Cl)ccc2C(=O)OC)c2ccccc2S1 (stereo not drawn) | -4% | -11%
Cc1cc(NC(=O)c2cccc3ccccc23)cc(C)c1OCC(=O)N1CCOCC1 | -26% | -12%[1.46 µM]
CCN(CCO)Cc1cc(=O)oc2c(C)c(C)ccc12 | -5% | i
COc1ccc(C2CC(c3cccc(Cl)c3)n3nc(N)nc3N2)cc1 (stereo not drawn) | -3% | -3%
O=C(NCC(c1cccs1)S(=O)(=O)c1ccccc1)c1ccc(C(F)(F)F)cc1 (stereo not drawn) | 2% | -9%
CC(=O)N1CCC2(CC1)OC(=O)C(C)=C2C(=O)NCc1ccccc1Cl | 3% | -5%
CCC(C)c1ccc(NC(=O)N2CCOCC2)cc1 (stereo not drawn) | -25% | -4%
O=C(COC(=O)c1ccc(S(=O)(=O)C(F)F)cc1)Nc1cccnc1Cl | -2% | i
COCC1CCN(c2nc3nonc3nc2N2CCSCC2)C1 (stereo not drawn) | 0% | i
COC(=O)c1ccc(-c2noc(CN(Cc3ccncc3)CC3CCCO3)n2)cc1 (stereo not drawn) | -4% | 11%
COc1cccc(NC(=O)CN(C)C(=O)/C=C/c2cn(-c3ccccc3)nc2-c2ccc(C)cc2)c1 | ? | -26%
O=C(O)c1ccc(CSc2nnnn2-c2ccc(F)cc2)cc1 | -2% | -22%
Cc1ccc(C)c(Cn2c(=O)n(-c3ccc(F)cc3)c(=O)c3sc4ccccc4c32)c1 | -6% | -7%
O=C(N/N=C/C(Br)=C\c1ccccc1)c1cccs1 | -19% | -20%
CN(C(=O)CSc1nnc(-c2cccs2)n1C1CC1)C1CCS(=O)(=O)C1 (stereo not drawn) | -1% | -14%
COC(=O)c1cc2sc(C)cc2n1CC(=O)Nc1ccc(C)cc1Cl | -6% | -10%
COc1ccc(-n2c(=S)[nH]c3cc(C(=O)NCCCN4CCOCC4)ccc3c2=O)c(OC)c1 | 11% | i
CCn1c(SCc2nc(-c3ccc(Cl)cc3)no2)nnc1-c1ccco1 | ? | ?
Cc1ccc(-n2c(SCC(=O)NCc3ccco3)nc3c(sc4ccccc43)c2=O)cc1 | 0% | -15%
CCCS(=O)(=O)N1CCN(Cc2ccccc2[N+](=O)[O-])CC1 | 6% | i
NCCN1C(=O)c2ccccc2C1(O)c1ccc(Cl)cc1 (stereo not drawn) | ? | ?
O=C(NCc1cccs1)C1CCC(=O)N(Cc2cccc(C(F)(F)F)c2)C1 (stereo not drawn) | -22% | -13%
O=C(CSc1nnc(COc2cccc3ccccc23)o1)N1c2ccccc2CCc2ccccc21 | -24% | .
COc1ccc(NC(=O)[C@@H](c2ccccc2)N2Cc3ccccc3C2=O)cc1OC | -4% | -16%
Cn1cccc1C(=O)NCc1ccc(Cl)cc1 | -4% | 10%
CCCCCCn1c(N2CCC(C(N)=O)CC2)nc2c1c(=O)n(C)c(=O)n2C | -6% | i
CCCC(C(=O)NC1CCCC1)N(CC1CCCO1)C(=O)CNS(=O)(=O)c1ccccc1 (stereo not drawn) | -10% | -12%
CCc1c(-c2ccccc2)nc2ccccc2c1C(=O)NCCc1ccccc1 | -16% | -21%
COC(=O)c1ccc(NC(=O)CSCc2ccccc2)cc1 | -11% | .
O=C1/C(=C\c2ccc(Br)cc2)SC(=S)N1NS(=O)(=O)c1ccccc1 | -2% | -3%
Cc1ccccc1Nc1nnc(SCC(=O)c2ccc(O)cc2O)s1 | -7% | -25%
CC(C)(CNS(C)(=O)=O)SCc1ccc(Cl)cc1 | -1% | i
CCC(C)c1ccc(N(CC(=O)NC(C)(C)C)C(=O)CNC(=O)c2cccs2)cc1 (stereo not drawn) | -25% | -1%
Cc1ccc(-n2nc(CO)c(C(=O)NCc3cccs3)n2)cc1C | -20% | -9%
CCN(CC(=O)NC1CC1)S(=O)(=O)c1ccc(OC)cc1 | 10% | -8%
COC(=O)c1ccccc1NC(=O)c1nn(C)c2c1COc1ccccc1-2 | -9% | -13%
COc1ccc(N(CC(=O)NC2CCCCCC2)S(=O)(=O)c2ccc(C)cc2)cc1OC | -15% | 0%
Cc1ccc(C)c(N2CCN(C(=O)CN(C)S(=O)(=O)c3cnc[nH]3)CC2)c1 | -9% | .
COC(=O)Nc1nnc(CCc2ccccc2)s1 | -13% | .
COc1ccc(NC(=O)CS(=O)(=O)c2ccc(C)cc2)c(OC)c1 | -17% | -29%
CN(Cc1ccccc1Cl)C(=O)CCNC(=O)c1ccco1 | -19% | i
COc1ccc(NC(=O)CC2C(=O)N(c3ccc(OC)cc3)C(=O)N2CCC2=CCCCC2)cc1 (stereo not drawn) | -13% | -12%
CSc1ncccc1C(=O)NCC1Cc2cc(F)cc(-c3cncnc3)c2O1 (stereo not drawn) | -2% | -12%
CSc1ccc(C(=O)N2CCc3c(cnc(C)c3CNC(=O)c3cncs3)C2)cc1 | -2% | 0%
Cc1ccc2nc(N3CCN(c4ccccc4F)CC3)c3nnnn3c2c1 | -11% | -10%
Cc1ccc([C@H]2C[C@@H](O)[C@H](n3cc(C4CC4)nn3)CN2Cc2cccs2)cc1 | -28% | i
CCn1c(NC(=O)c2ccc(C)cc2)c2ccccc2nc1=O | -25% | ?
CCOC(=O)c1ccccc1Cc1nc2ccccc2c(=O)[nH]1 | -10% | -12%
COc1ccccc1C(=O)N1CCN(c2nc3cc(C)cc(C)c3cc2C#N)CC1 | -24% | -23%
Cc1cc(Cl)ccc1NC(=O)c1cc2ccccn2n1 | -7% | i
Cc1ccc(N(CC(=O)NC2CCCC2)C(=O)CCCC(=O)Nc2ccccn2)cc1C | -12% | -11%[1.46 µM]
CCOc1ccccc1CNC(=O)C1Cc2cc(S(=O)(=O)N3CCCCC3)ccc2N1C(C)=O (stereo not drawn) | -14% | -13%
C[C@H](CO)N1C[C@H](C)[C@@H](CN(C)S(=O)(=O)c2cccs2)Oc2c(NC(=O)c3ccncc3)cccc2C1=O | -7% | i
N#Cc1c(-c2ccccc2)cc(C2CC2)nc1SCC(=O)O | -11% | -10%
CCn1c(O)c(N=NC(=S)NCC2CCCO2)c2ccccc21 (stereo not drawn) | -19% | -9%
ONC(=Nc1ccccc1Cl)c1ccccc1Cl | -4% | -3%
Cc1c(Cl)c(-c2n[nH]c(=S)n2-c2ccc(F)cc2)nn1C | ? | ?
CCOC(=O)c1[nH]c2ccccc2c1NC(=O)CCN1CCN(C(=O)OCC)CC1 | 2% | 0%
COc1cc2nc(SCC(=O)c3ccc(Br)cc3)n3nc(C)nc3c2cc1OC | -5% | i
Next records:
SMILES | Vaccinia Venus | Vaccinia mCherry
CCOc1ccc(CCNC(=O)c2nnc(Cc3ccc(F)cc3)o2)cc1OCC | -3% | i
CCN(CC)C1=N/C(=C\c2ccco2)C(=O)N1c1ccccc1 | 7% | -5%
CCc1nnc(SCC(=O)NC2CCCCC2)nc1CC | -15% | -16%
O=C(N/N=C/c1ccc2ncccc2c1)c1ccco1 | -11% | -21%
COc1ccccc1NC(=O)N(C)C[C@@H]1OCc2cnnn2CCCC(=O)N([C@@H](C)CO)C[C@H]1C | -1% | i
CC1CC2=C(CC1/C=N/NC(N)=S)C(C)(C)CCC2 (stereo not drawn) | ? | ?
CCN(CC)CCCn1c2c(c(SCC(=O)Nc3nccs3)nc1=O)CCC2 | -18% | i
Cc1ccccc1N1OC2C(=O)N(c3ccc(F)cc3)C(=O)C2C1c1ccccn1 (stereo not drawn) | 8% | -11%
O=C(COc1ccccc1Cl)NC(=S)N1CCc2ccccc21 | -13% | -17%
COc1ccc(C(=O)N(Cc2cc(OC)c(OC)c(OC)c2)CC2CCCO2)cc1 (stereo not drawn) | -9% | -4%
CC(C)=CCCC(C)CN1CCC(n2nccc2NC(=O)C2CCCC2)CC1 (stereo not drawn) | -11% | ?
CC(=O)Oc1ccc(C(=O)Nc2cccc(C(=O)NC(C)(C)C)c2)cc1 | -1% | -3%
C[C@@H]1CN([C@H](C)CO)C(=O)CCCn2cc(nn2)CO[C@H]1CN(C)C(=O)c1ccncc1 | 7% | 5%
COc1ccc(CNC(=O)N2CCN(c3ccc(F)cc3)CC2)cc1 | -19% | i
CC(NC(=O)Cc1ccccc1)c1ccc(F)cc1 (stereo not drawn) | -7% | -13%

In the list so far, 2 contain a COOH group:
SMILES | Vaccinia Venus | Vaccinia mCherry
O=C(O)c1ccc(CSc2nnnn2-c2ccc(F)cc2)cc1 | -2% | -22%
N#Cc1c(-c2ccccc2)cc(C2CC2)nc1SCC(=O)O | -11% | -10%

Structural class: those above containing an aryl thioether with sulfur outside any ring
SMILES | Vaccinia Venus | Vaccinia mCherry
O=C(O)c1ccc(CSc2nnnn2-c2ccc(F)cc2)cc1 | -2% | -22%
CN(C(=O)CSc1nnc(-c2cccs2)n1C1CC1)C1CCS(=O)(=O)C1 (stereo not drawn) | -1% | -14%
CCn1c(SCc2nc(-c3ccc(Cl)cc3)no2)nnc1-c1ccco1 | ? | ?
Cc1ccc(-n2c(SCC(=O)NCc3ccco3)nc3c(sc4ccccc43)c2=O)cc1 | 0% | -15%
O=C(CSc1nnc(COc2cccc3ccccc23)o1)N1c2ccccc2CCc2ccccc21 | -24% | .
Cc1ccccc1Nc1nnc(SCC(=O)c2ccc(O)cc2O)s1 | -7% | -25%
CSc1ncccc1C(=O)NCC1Cc2cc(F)cc(-c3cncnc3)c2O1 (stereo not drawn) | -2% | -12%
CSc1ccc(C(=O)N2CCc3c(cnc(C)c3CNC(=O)c3cncs3)C2)cc1 | -2% | 0%
N#Cc1c(-c2ccccc2)cc(C2CC2)nc1SCC(=O)O | -11% | -10%
COc1cc2nc(SCC(=O)c3ccc(Br)cc3)n3nc(C)nc3c2cc1OC | -5% | i
CCc1nnc(SCC(=O)NC2CCCCC2)nc1CC | -15% | -16%
CCN(CC)CCCn1c2c(c(SCC(=O)Nc3nccs3)nc1=O)CCC2 | -18% | i

More compounds:
SMILES | Vaccinia Venus | Vaccinia mCherry
CCOC(=O)C1CCN(CC(O)COCc2cccs2)CC1 (stereo not drawn) | -9% | -12%
COC(=O)c1c(OCc2ccccn2)cc(=O)n2c1CCN(Cc1cccc(C(F)(F)F)c1)CC2 | -18% | -23%
Cc1ccc(C(c2sc3nc(C)nn3c2O)N2CCN(c3ccccc3)CC2)cc1 (stereo not drawn) | -4% | -1%
Cc1ccc(OCC(=O)NCC(c2ccc(Cl)cc2)N2CCOCC2)cc1C (stereo not drawn) | -10% | -16%
N#Cc1ccsc1NC(=O)c1ccc2ncsc2c1 | -4% | -19%
COc1ccc(CNS(=O)(=O)c2ccc(S(=O)(=O)N3CCCCC3)cc2)cc1 | -17% | -1%
Cc1cc2c(cc1S(=O)(=O)CCC(=O)NCCc1ccccc1)OCC(=O)N2 | 5%&2% | 27%&8%
Cc1ccc(Nc2nc(CSc3nnc(-c4ccncc4)n3C)cs2)cc1 | -19% | i
O=C1OC(Nc2cc(Br)cc3cccnc23)c2ccccc21 (stereo not drawn) | -5% | -14%
Cc1cc2ccccn2c1C(=O)c1ccncc1 | -4% | -12%
CCOc1ccc(-c2cccc(NS(=O)(=O)c3ccccc3C(F)(F)F)c2)nn1 | 0% | -12%
COc1ccc(-c2nc(SC(C)C(=O)NC3CC3)n[nH]2)cc1 (stereo not drawn) | 13% | -2%
CCc1cccc(CC)c1NC(=O)COC(=O)c1cccc(S(=O)(=O)N2CCc3ccccc3C2)c1 | -2% | i
CC(=O)Nc1ccc2c(c1)c1ccccc1n2C(C)=O | -8% | -2%
COc1ccc(/C=N/NC(=O)Cn2cnc3ccccc3c2=O)cc1 | -3% | -6%
CCC(=O)c1ccc(/C=C/c2nc3ccccc3n2C)o1 | -5% | -1%
CCOC(=O)N1CCN(C(=O)c2oc3ccc(S(=O)(=O)N(CC)CC)cc3c2C)CC1 | -14% | i
CN(C(=O)c1cccc(COc2ccc(Cl)cc2Cl)c1)c1ccccc1 | -21% | -3%
CN(C)CCN1CCN(C2CN(CCc3ccccc3)S(=O)(=O)C2)CC1 (stereo not drawn) | 1% | i
COC(=O)c1ccccc1NC(=O)c1sc(=S)n(C)c1N | -7% | -4%
Cc1ccc(C(=O)OCc2nc(N)nc(Nc3ccccc3C)n2)cc1 | -5% | i
O=C(O)c1cc(-c2ccccc2)n(-c2ccc(Cl)cc2)n1 | 4% | 12%
COc1ccc(NC(=O)c2cc(S(=O)(=O)N3CCS(=O)(=O)CC3)ccc2Cl)cc1 | -10% | .
O=C(Cn1nc(C(F)F)cc1C1CC1)N1CCCC1 | -2% | i
O=C(NNC(=O)c1cc2cc(OC(F)(F)F)ccc2[nH]1)c1cccc(C(F)(F)F)c1 | -14% | i
O=C(CSc1ncnc2ccccc12)NC1CCS(=O)(=O)C1 (stereo not drawn) | -19% | -2%
COC(=O)c1ccc2nc(NC(=O)C(C)(C)C)sc2c1 | -8% | i
COc1ccc2[nH]c(C(=O)Nc3cccc(C)n3)cc2c1 | 4% | i
COC(=O)CN(c1nc(C)c(Br)c(OC)n1)S(=O)(=O)c1ccc(C)cc1 | -11% | -14%
CCc1ccc(NC(=O)Cn2c(=O)oc3cc(S(=O)(=O)N4CCCCCC4)ccc32)cc1 | -22% | -19%
OC1CCCN(CC(O)COC(c2ccccc2)c2ccccc2)C1 (stereo not drawn) | -7% | -12%
Cc1cccc(N2C(=O)NC(=O)/C(=C\c3cc(C)n(-c4sc5c(c4C#N)CCCC5)c3C)C2=O)c1C | 1% | -9%
Cc1ccc(CCNC(=O)CCCn2c(=O)c3ccccc3n(Cc3ccccc3C#N)c2=O)cc1 | -6% | -13%
COc1cc(C)ccc1OCC(=O)NCC1CCCO1 (stereo not drawn) | -7% | i
